Compound activity deposited in PubChem by ICCB-Longwood Screening Facility, Harvard Medical School.
CapD inh – Bacillus anthracis CapD inhibitors, primary screen, biochemical, fluorescence intensity; CapD gamma-glutamyltranspeptidase (Bacillus anthracis Ames Ancestor); purified CapD enzyme, fluorescence intensity read-out; hits give low values; some hits fall short of the stated cut; z-score (concentration not given with the values); 140,000 tested, 0.23% active; AID 492967, 2010;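 active means z-score under -4 in either of two replicates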;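 further: stock transfer was 100 nL into about 40 µL; score is relative to mean and spread of the plate; one replicate is shown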
AID504770 – growth inhibition of E. coli YBA685, primary screen, V. cholerae RctB inhibitors. z-score (concentration not given with the values). E. coli YBA685 rctB-dependent plasmid, OD600 growth, 3 h; hits give low values. 130,000 tested, 0.27% active;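 active means z-score under -2 on both plates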;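 further: wells of about 30 µL received 100 nL stock; score is relative to mean and SD of the test wells; the first replicate is given; strong numbers were not always called active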
* = called active by the depositor; nt = not tested or not shown; & = joins results of further samples.

SMILES	CapD inh	AID504770
CC1(C)C=C(NCC2CCCO2)CC(=O)C1 (configuration not stated)	0.17	-0.4
COc1cccc(C2CC(=O)Nc3sc4c(C)c(C#N)c(N)nc4c32)c1 (configuration not stated)	63.1	0.05
O=C(O)c1ccc(OC(F)(F)F)cc1	0.15	1.8
Cc1nnc(SCC(=O)O)s1	-0.305	-0.45
Cc1cc(C)c2[nH]c(=O)c(C(c3nnnn3C(C)(C)C)N(CCc3ccc(F)cc3)Cc3ccco3)cc2c1 (configuration not stated)	nt	0
CCCCn1c(N)c(N2CCOCC2)c(=O)n(CC(=O)Nc2ccc(S(=O)(=O)N(CC)CC)cc2)c1=O	nt	-0.45
CC1(C)CC(=O)C2=C(C1)OC(N)=C(C#N)C21CCN(Cc2ccccc2)CC1	2	0.45
CCC1=NN(C(=O)Cc2ccccc2)C(O)(c2ccccc2)C1 (configuration not stated)	nt	0.45
CSc1c[nH]n(-c2ccccc2)c(=O)c1=O	-0.905	-0.4
CCOc1ccc(/C=N/O)cc1	nt	0.6
COC(=O)C(O)(CC(=O)c1ccc(C(C)C)cc1)C(F)(F)F (configuration not stated)	0.125	0.4
O=C(NCc1ccccc1)c1ccc(N2C(=O)Cn3c(cc4sccc43)C2=O)cc1	2.45	-0.45
CN(CC(=O)Nc1ccc(N2CCOCC2)cc1)C(=O)Cc1ccccc1	nt	-1.4
Cc1occc1C(=O)N(Cc1ccccc1)Cc1ccccc1	-0.485	-0.55
COc1ccc(Oc2c(C(F)(F)F)oc3c(CN4CCCCC4)c(O)ccc3c2=O)cc1	-0.285	nt

Pulled by compound from the list above (2):
SMILES	CapD inh	AID504770
CSc1c[nH]n(-c2ccccc2)c(=O)c1=O	-0.905	-0.4
O=C(O)c1ccc(OC(F)(F)F)cc1	0.15	1.8

The results go on:
SMILES	CapD inh	AID504770
O=C(O)CCC(=O)N1N=C(c2c(-c3ccccc3)c3cc(Cl)ccc3[nH]c2=O)CC1c1ccccc1Cl (configuration not stated)	-0.15	nt
c1ccc(CN2CCOCCN(Cc3ccccc3)CCOCC2)cc1	6.31	0.05
CCOC(=O)[C@H]1NC(=O)C[C@H]1c1ccccc1	-0.45	1.55
O=C(CCC(=O)N1CC2CC(C1)c1cccc(=O)n1C2)N1CCCCCC1 (configuration not stated)	0.61	0.15
O=C(c1ccccc1C(F)(F)F)N1CCC(N(C2CC2)S(=O)(=O)c2cccc(C(F)(F)F)c2)CC1	-0.58	nt
CN(C)CC/C=C1\c2ccccc2COc2ccccc21	-0.17	nt
COc1ccc(Br)cc1/C=C1/SC(=Nc2ccccc2)NC1=O	-0.035	nt
CCOc1ccc(-c2nnc(NC(=O)C3CCN(c4ncnc5sc(C)c(C)c45)CC3)o2)cc1	nt	-0.05
Cn1cccc1C(=O)Nn1ccc(O)c(Cc2ccc(Cl)cc2Cl)c1=O	-0.29	nt
CCN(CC)Cc1cc(C(C)C)c(O)c(C(C)C)c1	1.64	0.05
COc1ccc(C(=O)COC(=O)c2ccco2)cc1OC	nt	-0.3
CSc1sc(C(=O)NN=NC(C)C)c2c1C(O)CCC2 (configuration not stated)	-0.785	-0.35
Cc1ccccc1-c1ocnc1C(=O)NCc1ccc(C(F)(F)F)cc1	nt	-0.2
O=C(COC(=O)c1ccc2c3c1C1C=CCC1CN3CC1CC=CC21)c1ccc(-c2ccccc2)cc1 (configuration not stated)	-0.175	nt
Cc1cc(C(=O)NN)nn1-c1c(Cl)cc(Cl)cc1Cl	0.325	0.35
Cc1nnc(SCC(=O)N2N=C3/C(=C/c4cccs4)CCCC3C2c2cccs2)n(N)c1=O (configuration not stated)	nt	0.3
CCC(CC)C(=O)CN1C(=O)C2(OCCO2)c2ccccc21	0	nt
CN(C)/C=C/c1ncc(C(F)(F)F)cc1Cl	-1.08	-0.65
Cc1nc2ccccc2c(=O)n1-c1ccc(Cl)cc1	0.51	0.55
CCOC(=O)CNc1ncnc2nc[nH]c12	nt	-1.4
Cc1ccc(NC(=O)CSC2=C(C#N)C(c3ccc4c(c3)OCO4)C3=C(CCCC3=O)N2)c(C)c1 (configuration not stated)	4.38	nt
COc1ccc(C(=O)Nc2nccs2)cc1OC	nt	0
Cc1cc(O)c(CN2CCN(S(=O)(=O)c3cccc(Br)c3)CC2)cc1C	nt	-0.6
CCOC(=O)Cn1c(C)cc(=O)c2cccc(OC)c21	28.7	-1.1
Nc1nonc1-n1nnc(CO)c1CO	nt	-0.55
CCc1cc2c(=O)c(-c3nc4ccccc4[nH]3)c(C)oc2cc1O	-0.755	2.75
Cc1cc(C(=O)N/N=C2\CC(=O)c3ccccc32)c(C)o1	nt	-0.65
CCCCNC(=O)c1ccc2c(c1)[nH]c(=S)n1c3ccccc3nc21	9.92	nt
O=C(Nc1ccc(F)cc1F)C1CC(=O)N(Cc2ccccc2)C1 (configuration not stated)	nt	-0.65
c1ccc(-c2nnc(-c3cccnc3)nc2-c2ccccc2)cc1	nt	-0.3

An excerpt of these results, in markdown:
| Molecule | CapD inh | AID504770 |
| --- | --- | --- |
| CN(CC(=O)Nc1ccc(N2CCOCC2)cc1)C(=O)Cc1ccccc1 | nt | -1.4 |
| Cc1occc1C(=O)N(Cc1ccccc1)Cc1ccccc1 | -0.485 | -0.55 |
| COc1ccc(Oc2c(C(F)(F)F)oc3c(CN4CCCCC4)c(O)ccc3c2=O)cc1 | -0.285 | nt |
| O=C(O)CCC(=O)N1N=C(c2c(-c3ccccc3)c3cc(Cl)ccc3[nH]c2=O)CC1c1ccccc1Cl (configuration not stated) | -0.15 | nt |
| c1ccc(CN2CCOCCN(Cc3ccccc3)CCOCC2)cc1 | 6.31 | 0.05 |

Part of the list above in order of number of heavy atoms, smallest number first:
SMILES	CapD inh	AID504770
Cc1cc(C(=O)N/N=C2\CC(=O)c3ccccc32)c(C)o1	nt	-0.65
O=C(Nc1ccc(F)cc1F)C1CC(=O)N(Cc2ccccc2)C1 (configuration not stated)	nt	-0.65
CCCCNC(=O)c1ccc2c(c1)[nH]c(=S)n1c3ccccc3nc21	9.92	nt
Cc1cc(O)c(CN2CCN(S(=O)(=O)c3cccc(Br)c3)CC2)cc1C	nt	-0.6

Next structures follow:
SMILES	CapD inh	AID504770
O=C(Cc1c[nH]c2ccccc12)OCC(=O)N1CCCc2ccccc21	nt	-0.6
O=C(OCc1csc(-c2ccccc2)n1)C1Cc2ccccc2CN1S(=O)(=O)c1cccs1 (configuration not stated)	nt	0.25
COc1cccc(NC(=O)CSc2nc3c([nH]c4ccccc43)c(=O)n2C)c1	0.26	1.05
O=[N+]([O-])c1ccc(C2Nc3ccc(Cl)cc3C(c3ccccc3)O2)cc1 (configuration not stated)	-0.67	nt
CCOC(=O)c1nnn(-c2nonc2N)c1-c1cccc2ccccc12	-0.21	-1.1
Cc1ccc(/C=N/NC(=O)c2ccc(S(N)(=O)=O)cc2)cc1	-0.54	nt
COC(CNC(=O)C1CCC(=O)N1Cc1ccc(C)cc1)OC (configuration not stated)	-0.225	-0.35
O=c1/c(=C/c2cccc([N+](=O)[O-])c2)sc2nnc(-c3ccccc3Cl)n12	-0.145	nt
O=C(NC1CCS(=O)(=O)C1)c1ccc(C(=O)c2ccccc2)cc1 (configuration not stated)	-0.09	-1.3
Cc1onc(-c2c(Cl)cccc2Cl)c1C(=O)NNC(=O)CCc1nc2ccccc2n1C	-0.54	nt
C=CCN(CN1C(=O)C2C3C=CC(C3)C2C1=O)CN1C(=O)C2C3C=CC(C3)C2C1=O (configuration not stated)	0.175	nt
O=C1c2[nH]nc(-c3ccccc3)c2C(c2ccc3c(c2)OCO3)N1c1ccccc1 (configuration not stated)	0.08	nt
COc1ccc(OC)c(NC(=O)c2cccc(N3C(=O)C4CC=C(C)CC4C3=O)c2)c1 (configuration not stated)	-0.07	nt
CC(=O)CC(=O)[C@@]1(O)CC[C@H]2[C@@H]3C=C(C)C4=CC(=O)CC[C@@H]4[C@H]3CC[C@@]21C	1.08	nt
CC1(C)CC(=O)C(C(=O)C2CCN(S(=O)(=O)c3ccccc3)CC2)C(=O)C1	-0.09	nt
O=C(CN1CCOCC1)N1N=C(c2ccc(Cl)cc2)CC1c1ccco1 (configuration not stated)	nt	1.95
O=C(Nc1ccncc1)c1ccccc1O	0.365	1.4
CCOC(=O)CC1=Nn2c(nnc2-c2cccs2)SC1	-0.735	-0.35
CN(C)c1ccc(C(=O)OCC(=O)NC2CC2)cc1	-1.45	-0.65
O=C(Nc1ccccc1)OCC1(c2ccccc2)C(=O)c2ccccc2C1=O	-0.28	2.05
CCOC(=O)c1c(C)n(CCOCc2ccccc2Cl)c2c1cc(O)c1ccccc12	2	nt
O=C1c2ccccc2-c2ccc(-c3nc(-c4ccc(C#Cc5ccccc5)cc4)[nH]c3-c3ccccc3)cc21	0.815	nt
COc1cc(C2CC(=O)NC(SCc3ccccc3)=C2C#N)cc(Br)c1O (configuration not stated)	-0.35	nt
O=C(O)CNc1ncnc2ccccc12	1.12	0.2
CS(=O)(=O)N1CCC(C(=O)NC2CCCCCCC2)CC1	nt	-0.4
CC1(C)CC(NC(=O)COc2ccc(Cl)cc2Cl)CC(C)(C)N1	-0.345	0.25
Cc1nnc(SCC(=O)Nc2sc3c(c2C(N)=O)CCC(C)C3)[nH]c1=O (configuration not stated)	nt	-1.05
COC(=O)c1ccc(C#CC(C)(C)O)cc1	-0.1	0
CC(C)(C)C(=O)Nc1cccc(C(=O)NN)c1	0.005	-0.95
COC(=O)CCC(=O)c1cc2ccccc2o1	0.015	0.45
O=C(NCCCN1CCCC1=O)c1ccc2c(=O)n(CCc3c[nH]c4ccccc34)c(=S)[nH]c2c1	-0.315	nt
CC(C)N(C(=O)CSc1nc2ccccc2c(=O)[nH]1)C(C)C	nt	0.2
O=C(Nc1ccc(N2CCOCC2)cc1)c1cccc(C(F)(F)F)c1	-0.63	nt
CC1=NN(c2ccc(S(N)(=O)=O)cc2)C(=O)/C1=C\C=C/c1ccccc1	4.21	1.2
O=C(NCc1cccnc1)c1cccc2ccccc12	0.235	2.2
O=c1[nH]nc(-c2ccccc2)c2cc3c(=O)[nH]nc(-c4ccccc4)c3cc12	nt	-0.05
COc1cc(C2C(C#N)=C(N)Oc3n[nH]c(-c4ccc5c(c4)OCO5)c32)cc(OC)c1OC(C)=O (configuration not stated)	-0.415	nt
Cc1ccc(C)n1-c1ccc(/C=N/Nc2cc(C(F)(F)F)cc(C(F)(F)F)c2)cc1	0.235	nt
c1ccc(-n2ncc3c(N4CCN(c5ncccn5)CC4)ncnc32)cc1	nt	2.75
O=C(Nc1nc(-c2ccc3c(c2)OCO3)cs1)c1cc2ccccc2o1	nt	-1.35
CCN(c1ccccc1)c1nc2ccsc2c(=O)s1	0.47	1.15
CCN(CC)C(=O)CN1CCCN(Cc2ccc(F)cc2)S1(=O)=O	0.36	-0.8
O=C(c1cnn2c1NC(c1ccc3c(c1)OCO3)CC2C(F)(F)F)N1CCN(C(c2ccccc2)c2ccccc2)CC1 (configuration not stated)	0.375	nt
O=C(Oc1ccc(C=Nc2cccc(Br)c2)cc1)c1ccncc1	0.285	-0.3
CCOC(=O)c1c(C)nn(Cc2cccc(Cl)c2)c1N	-0.89	-1
CCN(CC)CCCC(C)Nc1ccnc2cc(Cl)ccc12 (configuration not stated)	0.125&-0.39	0.6
O=S(=O)(Cc1noc(-c2cccs2)n1)c1ccc(F)cc1	0.255	nt
Cc1nc(N2CCN(c3ccccn3)CC2)c2c(C)c(C(=O)N3CCC4(CC3)OCCO4)sc2n1	-0.65	nt
Cc1nc(C)c(S(=O)(=O)NCc2ccc(-c3cccs3)cc2)s1	7.05	-0.35
COc1ccc(OC)c(/C=C/C(=O)O)c1	87.6	0.2
CSc1nnc(COc2cccc(C)c2)n1C	nt	-1.15
CCOc1[nH]n(-c2ccc(Cl)cc2)c(=O)c1C=NCc1cccnc1	-0.66	nt
CC(=O)C1=C(C)NC(SCC(=O)NC23CC4CC(CC(C4)C2)C3)=C(C#N)[C@@H]1c1ccccc1[N+](=O)[O-]	-0.13	nt
COc1ccc(C(=O)CSc2nc(-c3ccco3)nc3c2c(=O)n(C)c(=O)n3C)cc1	0.29	-1.05
O=C(Nc1ccc(-c2nc3ncccc3o2)cc1)c1ccccc1Cl	52.1	0.1
CC(=O)Nc1sc2c(c1C(c1cccnc1)N1CCN(C)CC1)CCCC2 (configuration not stated)	nt	-1.3
COc1ccc(S(=O)(=O)Nc2cccc3cc(C(=O)NCC4CCCO4)[nH]c23)cc1 (configuration not stated)	0.105	nt
N#Cc1ccc(OCC(=O)NCCCn2ccnc2)cc1	0.085	-0.25
CCN(CC)S(=O)(=O)c1ccc(NC(=O)CN2c3ccccc3CC2C)cc1 (configuration not stated)	nt	-2.5
CC(=O)Nc1ccc(/C=C2/SC(=Nc3ccccc3)NC2=O)cc1	nt	0.25

(continued)
SMILES	CapD inh	AID504770
CCN(CCOC(=O)N1CCN(c2cc(C(F)(F)F)ccn2)CC1)c1ccc(N=Nc2ccc([N+](=O)[O-])cc2)cc1	11	nt
CSc1ccc(CNc2ccc(S(N)(=O)=O)cc2)cc1	0.105	-0.05
COC(=O)C1C(=O)c2c([nH]c(C(=O)OC(C)C)c2C)CC1C (configuration not stated)	0.285	-0.8
CCOC(=O)C1=NN(c2ccc(Br)cc2)C2(Nc3ccccc3S2)S1 (configuration not stated)	-0.375	nt
O=C(C1=C(O)/C(=C/c2ccccc2)CCC1)C(F)(F)F	-0.605	1.2
COc1cc(OC)c(C2=NOC(C(=O)Nc3ncn(CC(=O)N4CCC(C)CC4)n3)C2)cc1Cl (configuration not stated)	2.62	0.6
COc1ccc(-c2n[nH]c3c2C(c2ccccc2)N(c2ccccc2)C3=O)cc1 (configuration not stated)	0.335	-0.35
CC(=O)c1c(C)nc2c(C#N)c(C)n(-c3ccc(Br)cc3)c2c1-c1ccccc1	0.11	nt
CCOC(=O)N1CCC(C(=O)OCCOc2cccc(Cl)c2)CC1	nt	0.05
O=C(CSc1ccc2c(c1)OCCO2)Nc1ccccc1	nt	-0.2
O=C(CC1CCCC1)N(c1nccs1)C1CCCCC1	nt	0.05
